Source: PubChem (National Center for Advancing Translational Sciences (NCATS))
D2 agonist – agonists of human D2 dopamine receptor (beta-arrestin). P14416. DiscoveRx PathHunter D2 beta-arrestin, luminescence, 90 min; 100% = 57 uM dopamine signal. activation, % (test concentration not listed). actives 0.084% (n = 360,000); in the data active = activation above about 40%; inconclusive = about 15% to 40%; inactive = below about 15%; note: compound concentration not given in the record; the text of the record calls up to 30% inactive
Target sequence (P14416 whole entry, looked up): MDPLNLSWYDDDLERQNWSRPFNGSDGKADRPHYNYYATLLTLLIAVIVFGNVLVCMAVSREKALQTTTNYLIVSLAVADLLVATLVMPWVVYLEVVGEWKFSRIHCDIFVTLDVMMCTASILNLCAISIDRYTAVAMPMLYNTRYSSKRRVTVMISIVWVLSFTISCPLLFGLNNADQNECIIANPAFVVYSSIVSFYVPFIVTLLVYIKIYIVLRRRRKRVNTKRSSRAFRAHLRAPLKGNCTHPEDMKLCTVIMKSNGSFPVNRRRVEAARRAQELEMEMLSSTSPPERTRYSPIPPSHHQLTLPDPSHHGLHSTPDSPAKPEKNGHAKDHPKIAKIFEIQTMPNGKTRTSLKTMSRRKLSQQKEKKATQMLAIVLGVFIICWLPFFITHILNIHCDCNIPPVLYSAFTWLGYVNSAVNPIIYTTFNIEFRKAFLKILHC
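Agonist mode: compounds alone added to overnight-plated D2 PathHunter cells for 90 min at 37 C, with 57 uM final dopamine (EC100) defining full response. Beta-arrestin recruitment detected by chemiluminescent reagent, read after 1 h at ambient temperature.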
Six1-Eya2 blk – blocks human Six1 binding to Eya2 | AlphaScreen GST-Six1/His-Eya2 binding, biochemical; active compounds read low; control for the full effect not named in the record | activity change, % (test concentration not listed) | actives 0.56% (n = 360,000); in the data active = activity change below about -65%; inconclusive = about -30% to -65%; inactive = above about -30%; note: % is set by controls: 0 for no effect and ±100 for the full control effect
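AlphaScreen with GST-Six1 and His-Eya2 (5X mix: 250 nM and 500 nM), glutathione donor and nickel acceptor beads; buffer 50 mM Tris pH 8.0, 300 mM NaCl, 1 mM TCEP; 1 h at 37 C in the dark.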
CtBP-E1A blk – blocks the CtBP interaction with E1A | AlphaScreen GST-E1A/His-CtBP binding, 1536-well; active compounds read low; control for the full effect not named in the record | activity change, % (test concentration not listed) | actives 0.49% (n = 340,000) | AID 651724; in the data active means activity change below about -65%; inconclusive means about -30% to -65%; inactive means above about -30%; note: % is set by controls: 0 for no effect and ±100 for the full control effect
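AlphaScreen with 125 nM GST-E1A and 125 nM His-CtBP (5X stocks) in Tris pH 8.0, 300 mM NaCl, BSA, Tween 20, TCEP. Compounds preincubated 2 h at 37 deg C, then glutathione donor/nickel acceptor beads added for 1 h at 37 deg C in dark.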
PINK1 modulator – modulators of PINK1 expression; PINK1 immunofluorescence, high-content cytometry, 24 h; Potency, µM (titrated, usually from 76.6 µM), for the others: top-dose activation (PINK1 increase), usual class: activators; actives 0.2% (n = 410,000); AID 624263; active = well fitted activation curve with a large enough effect; inconclusive = small, poorly fitted or top-dose-only effect; inactive = flat fitted curve, though single readings scatter; cell line not stated here;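 note: potency is the fitted concentration of half-maximal effect; % of control where 0% means no effect; nearly all actives have a fitted effect of over 65% in size; a mitochondrial uncoupler was the plate control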
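Stable cell line treated 24 h with compounds at 5 concentrations (CCCP controls), then fixed and immunostained for PINK1 plus nuclear and cell stains; PINK1 immunofluorescence quantified by laser-scanning microplate cytometry.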
TRPML1 inh – inhibitors of human TRPML1 channel; activity change, negative = inhibition, % (no concentration beside the values); Q9GZU1; actives 0.02% (n = 390,000); TRPML1-inducible cells, Ca2+ dye fluorescence, FDSS; active compounds read low; inhibition of EC80 agonist-evoked calcium signal; in the data active means activity change below about -50%; inconclusive means about -30% to -50%; inactive means above about -30%;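 note: stimulus is agonist 54-4 at its EC80 concentration; % is set by controls: 0 for no effect and ±100 for the full control effect; compound concentration not given in the record; the text of the record puts the active cut at -80%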
Target sequence (Q9GZU1 whole entry, looked up): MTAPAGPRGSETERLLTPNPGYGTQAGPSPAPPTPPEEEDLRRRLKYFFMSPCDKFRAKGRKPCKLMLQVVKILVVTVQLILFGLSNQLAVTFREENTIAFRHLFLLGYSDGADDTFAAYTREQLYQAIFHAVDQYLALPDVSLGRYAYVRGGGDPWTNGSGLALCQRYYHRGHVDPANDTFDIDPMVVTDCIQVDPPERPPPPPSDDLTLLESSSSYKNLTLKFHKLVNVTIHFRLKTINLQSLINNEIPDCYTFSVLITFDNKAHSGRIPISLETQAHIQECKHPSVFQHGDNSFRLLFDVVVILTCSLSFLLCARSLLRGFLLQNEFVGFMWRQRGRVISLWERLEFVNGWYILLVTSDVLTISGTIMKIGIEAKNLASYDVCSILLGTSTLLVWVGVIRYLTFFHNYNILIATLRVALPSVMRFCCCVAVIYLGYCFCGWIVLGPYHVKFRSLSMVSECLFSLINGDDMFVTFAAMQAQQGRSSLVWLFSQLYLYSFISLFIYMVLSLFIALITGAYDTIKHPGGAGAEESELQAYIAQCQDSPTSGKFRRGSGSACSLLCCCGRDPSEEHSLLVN
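Tet-induced TRPML1-DL cells loaded with Ca8 no-wash calcium dye were read kinetically on FDSS. Compound addition was followed by EC80 agonist 54-4 (4 uM final); inhibition was read over 110 s.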
TRPML1 ag – activates the human TRPML1 channel; actives 0.12% (n = 410,000); TRPML1-expressing cells, Ca2+ dye fluorescence, FDSS; host cell line not named in the record; reference of the full effect not given here; Q9GZU1; activation, % (no concentration beside the values); in the data active = activation above about 50%; inconclusive = about 30% to 50%; inactive = below about 30%; note: 0% is about no effect; the text of the record puts the active cut at 80%
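Tetracycline-induced TRPML1-DL cells are seeded and incubated overnight before loading with a no-wash Ca2+ dye and quencher. Agonist activity is taken from the 110 s fluorescence read following compound pin-transfer on an FDSS, before EC80 54-4 challenge.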
An asterisk follows results filed as active; u = inconclusive; x = no result given; & = joins results of further samples; [ ] = remark or other dose. Compounds were not picked by outcome. About 1% of those tested had a hit in this group.

SMILES	D2 agonist	Six1-Eya2 blk	CtBP-E1A blk	PINK1 modulator	TRPML1 inh	TRPML1 ag
CCN(C(=O)COC(=O)CCOc1ccccc1C)c1c(N)n(Cc2ccccc2)c(=O)[nH]c1=O	-3.6	5.6	-8.7	0.6%	11.5	0.7
CN(CC(=O)Nc1ccc(Cl)cc1)C(=O)c1ccc(N2CCCC2=O)cc1	-1.7	9.5	x	3.4%	-2.6	0.6
CC(=O)N1CCc2cc(Br)cc(S(=O)(=O)CCC(=O)NCc3ccc(F)cc3)c21	x	x	x	0.6%	-1.5	-0.3
Cc1cc(C)n2nc(C(=O)OCC(=O)N3CC(C)CC(C)C3)nc2n1 (centres undefined)	-1.9	5.4	9.0	2.4%	-3.2	1.2
COc1cc(/C=N/Nc2ccc(S(N)(=O)=O)cc2)cc(OC)c1OC	8.2	u	-1.7	4.0%	32.5	-0.8
CCS(=O)(=O)c1ccc(NC(=O)c2ccccc2Cl)c(O)c1	-5.2	-8.7	10.8	5.6%	-1.6	-0.2
O=C(CN1CCN(S(=O)(=O)N2CCCCC2)CC1)Nc1ccc(Cl)c(Cl)c1	-3.5	-21.7	0.0	1.5%	15.4	-1.2
Cc1cc(NC(=O)CSc2ccc(-c3nc4cc(C)c(C)cc4[nH]3)cn2)no1	1.1	-1.8	8.0	13.7%[38.3 µM]	2.6	1.5
CCS(=O)(=O)N1CC(=O)N(c2cc(Cl)ccc2C)C(C)(C(=O)NC2CCCCCC2)C1 (centres undefined)	x	x	x	0.4%	-18.3	1.1
Nc1nc(N)c(N=O)c(Nc2cccc(Cl)c2)n1	x	u	-2.0	-0.1%	x	-0.7
CN1C(=O)/C(=C2\SC(N)=NC2=O)c2ccccc21	-7.4	-3.8	0.1	7.5%	-12.5	-0.3
CCN1CCc2c(OCc3ccc(C)cc3)cccc2C1=O	0.3	12.6	-1.7	-0.3%	28.8	1.9
COC(=O)c1ccc(CN2CCN(C3CCCC3)C(CCO)C2)cc1 (centres undefined)	-4.2	-0.1	3.2	3.4%	-0.8	-0.8
Cc1c(NC(=S)NC(=O)C(C)(C)C)cccc1[N+](=O)[O-]	-4.6	-8.5	1.8	2.1%	5.2	-1.3
O=C(Nc1ccnn1C1CCN(Cc2cccc(OCCO)c2)CC1)C1CC1	-2.7	1.4	5.9	2.0%	-2.4	-0.3
C=CCc1ccc(OC(=O)NC2CCCCC2)c(OC)c1	-0.8	5.0	6.4	0.9%	-4.2	-1.8
Cc1ccc(-n2c(C)nnc2SCC(=O)NNC(=O)c2ccco2)cc1	1.1	13.5	-2.5	0.6%	-17.7	0.6
O=C(c1ccccc1)C(C(=O)N1CCCCC1)n1ccccc1=O (centres undefined)	-4.4	1.6	15.0	2.2%	11.8	-0.5
COc1ccc(C(=O)n2c(C)c(CCO)c(=O)n2C)cc1	-3.6	3.3	2.3	-0.2%	9.3	-0.7
CCCCCCCCN1C(=O)[C@H](CC(=O)NCCCCc2ccccc2)C[C@@]2(C(=O)OC)CCCCC=C12	x	0.0	6.3	u	x	1.2
COc1cc2ccccc2cc1C(=O)NC(=S)Nc1ccc(C(=O)O)cc1	-2.1	-12.2	-29.9	1.4%	18.3	1.1
CC(C)Oc1ccc2c3c(c(=O)oc2c1)CCC3	-2.1	2.6	7.2	-3.6%	-1.3	0.2
O=C(c1ccccc1)N1CCCCC1	-2.8	4.5	0.4	1.7%	x	x
CC1CN(CC(O)c2ccc(Br)cc2)CCO1 (centres undefined)	0.5	9.6	-0.7	3.0%	2.3	-0.1
Cc1c(CC(=O)N2CCCCC2)c(=O)oc2c(C)c3occ(C(C)(C)C)c3cc12	x	x	x	-0.9%	-9.5	-0.6
O=C(O)c1ccccc1NC(=S)NC(=O)c1cccc2ccccc12	0.4	-3.6	-15.0	1.6%	9.4	1.8
Cc1ccc2c(c1)N(CC(=O)NCCCN1CC(C)CC(C)C1)C(=O)c1cccnc1O2 (centres undefined)	-2.4	-4.9	2.9	0.4%	-0.2	1.2
Cc1ccc2c(=O)cc(C(=O)Nc3ccc(S(=O)(=O)N4CCCC(C)C4)cc3)oc2c1C (centres undefined)	x	x	x	1.5%	16.8	1.1
O=C(COC(=O)C1CC1)NCCc1ccccc1	-4.9	6.2	-1.1	-0.6%	-8.0	0.4
C=CCn1c(SCc2c(C)noc2C)nc2sc(C)c(C)c2c1=O	-3.6	16.5	41.7	22.9%[38.3 µM]	-11.2	0.5
CC(C)c1cccc(-c2csc(C(C)(O)c3ccncc3)n2)c1 (centres undefined)	9.7	3.4	4.7	-0.3%	x	-0.8
Cc1ccc2c(CN3CCCCC3)cc(=O)oc2c1	3.4	1.0	5.7	1.2%	-17.1	1.4
Cc1ccc(CNC(=O)c2ccc(NC3=NC4CS(=O)(=O)CC4S3)cc2)cc1 (centres undefined)	-9.4	5.3	1.3	11.6%	20.9	-0.1
COC(=O)c1ccc(NC(=O)C2CCCN2C(=O)Nc2cccc(C(C)=O)c2)cc1 (centres undefined)	-3.6	-0.2	19.3	1.0%	19.9	-1.2
COc1ccc(NC(=O)CCN2CCN(Cc3ccccc3)CC2)c(OC)c1	2.6	-2.3	x	3.0%	-22.1	-1.0
CNCCC(=O)N1c2ccccc2CCc2ccc(NC(=O)OC)cc21	1.4	5.2	x	0.8%	15.7	0.0
CCC(C)(C)NC(=O)C(c1ccc(OC)cc1)N(C(=O)CCC(=O)Nc1cc(C)on1)C(C)(C)C (centres undefined)	-3.0	-6.9	-0.5	4.5%	-7.5	-1.3
Cc1ccccc1NC(=O)Cc1nc(COC(=O)c2cccc(O)c2)cs1	0.1	-11.3	x	2.8%	6.1	0.5
COc1ccc(C2CC(C(F)(F)F)n3nc(C(N)=O)c(Cl)c3N2)cc1OC (centres undefined)	0.8	-0.4	0.1	-0.7%	-10.6	-0.9
Cc1cc(C)cc(NC(=O)CCN2C(=O)c3ccccc3Sc3ncccc32)c1	x	x	x	0.1%	-22.9	-0.4
Cc1c(N=C2NC(=O)/C(=C/c3ccc(O)cc3)S2)c(=O)n(-c2ccccc2)n1C	-5.1	-3.0	18.4	-0.3%	-4.6	0.0
COc1ccc(NS(=O)(=O)c2cc(NC(=O)Cn3cnc4c3c(=O)n(C)c(=O)n4C)ccc2C)cc1	-3.5	-14.4	-19.8	5.1%	2.3	0.6
O=C(Cn1[nH]c(=O)c2ccccc2c1=O)Nc1ccc2c(c1)CCC2	-4.1	-16.6	-23.1	-1.3%	18.0	0.1
O=C(c1cnc2cc(-c3ccccc3)nn2c1)c1cc([N+](=O)[O-])ccc1O	x	x	x	5.1%	24.9	0.0
C=Cc1ccc(CN2C(=O)c3ccccc3Sc3ccc(C(=O)OCc4ccco4)cc32)cc1	x	x	x	1.9%	40.4	3.8
CC(C)CC(NC(=O)c1ccccc1)C(=O)OCC(=O)Nc1ccc(S(N)(=O)=O)cc1 (centres undefined)	-0.1	0.7	-13.0	0.4%	1.4	0.0
Fc1ccc(Nc2c(-c3c[nH]c4ccccc34)nc3ccccn23)cc1	x	x	x	-1.0%	11.5	-0.9
CN(CC(=O)Nc1ccc(Cl)c(C(F)(F)F)c1)C(=O)/C=C/c1cccs1	-0.2	1.2	x	2.8%	3.5	1.7
COc1cc(OC)cc(-c2noc(-c3csc([C@H]4C[C@H](O)[C@@H](CO)O4)n3)n2)c1	5.3	6.7	-10.6	0.3%	-29.7	-0.3
Cc1nc(-c2cccs2)sc1C(=O)O	-1.9	1.2	2.5	-0.5%	35.6	1.1
CCOC(=O)c1cccc(NC(=O)c2cnc3sc(N4CCOCC4)nn3c2=O)c1	x	x	x	1.6%	-18.4	-0.4
O=C(CCn1nc(-c2ccccc2)c2ccccc2c1=O)Nc1cccnc1	2.0	0.5	x	1.7%	-1.4	0.0
O=C(Nc1cccc2c1N(C(=O)c1ccco1)CCC2)c1ccco1	-2.8	5.4	x	1.5%	-3.6	4.4
CCN(CC(=O)Nc1c(F)cccc1F)C(=O)c1ccc(=O)[nH]c1	-0.7	-0.1	-10.2	-1.6%	-1.0	0.7
Nc1sc2c([n+]1CCCS(=O)(=O)[O-])CCCC2	-5.2	13.4	x	1.0%	10.5	0.4
O=C(Nc1ccccc1Cl)c1cc(C2CCCN(C(=O)c3ccc4c(c3)CCO4)C2)on1 (centres undefined)	10.8	-13.6	-15.2	-0.1%	x	-0.2
CCN(CC)C(=O)c1c(NC(=O)c2ccccc2)sc(C)c1C	1.0	7.8	5.1	-0.8%	-7.4	-0.4
O=C(O)CCn1ccc2cc(S(=O)(=O)N3CCCCCC3)ccc21	-3.1	4.6	-16.3	-0.5%&0.9%	1.5&-7.3	-0.2&0.6
O=C(Cc1n[nH]c(=O)c2ccccc12)Nc1cccc(S(=O)(=O)N2CCCC2)c1	-2.7	-4.4	-4.9	-1.2%	-10.6	-0.2
O=C(c1cnn2c(C(F)F)cc(-c3ccccc3)nc12)N1CCCc2ccccc21	0.5	1.1	5.2	1.3%[38.3 µM]	2.5	-0.4

Reprinted from the part before: 2 compounds; new compounds follow.
SMILES	D2 agonist	Six1-Eya2 blk	CtBP-E1A blk	PINK1 modulator	TRPML1 inh	TRPML1 ag
O=C(Cc1n[nH]c(=O)c2ccccc12)Nc1cccc(S(=O)(=O)N2CCCC2)c1	-2.7	-4.4	-4.9	-1.2%	-10.6	-0.2
O=C(c1cnn2c(C(F)F)cc(-c3ccccc3)nc12)N1CCCc2ccccc21	0.5	1.1	5.2	1.3%[38.3 µM]	2.5	-0.4
O=C(COC(=O)c1cc[n+]([O-])cc1)Nc1ccc(Cl)cc1C(F)(F)F	-0.7	10.9	-2.4	-0.7%	11.5	0.2
CCCCCCNC(=O)CCc1nc2cccnc2n1Cc1ccc(OC)cc1	2.7	2.0	x	-0.3%	-0.1	0.7
O=C(N/N=C/c1cccnc1)c1ccc2c(c1)OCO2	-3.1	1.0	4.8	3.0%	15.1	0.3
COc1ccc(-n2nc3c(N4CCC(C(=O)NCc5ccccc5C)CC4)nnc(C)c3c2C)cc1	-7.4	-0.6	-2.5	-1.4%&-0.8%	17.2&-0.4	0.3&2.0
COc1ccc(/C=N/NC(=O)CCCC(=O)NC2CCCCC2)cc1	0.0	3.0	3.2	-0.9%	0.4	-0.4

Among those listed so far, these contain a COOH group.
SMILES	D2 agonist	Six1-Eya2 blk	CtBP-E1A blk	PINK1 modulator	TRPML1 inh	TRPML1 ag
COc1cc2ccccc2cc1C(=O)NC(=S)Nc1ccc(C(=O)O)cc1	-2.1	-12.2	-29.9	1.4%	18.3	1.1
O=C(O)c1ccccc1NC(=S)NC(=O)c1cccc2ccccc12	0.4	-3.6	-15.0	1.6%	9.4	1.8
Cc1nc(-c2cccs2)sc1C(=O)O	-1.9	1.2	2.5	-0.5%	35.6	1.1
O=C(O)CCn1ccc2cc(S(=O)(=O)N3CCCCCC3)ccc21	-3.1	4.6	-16.3	-0.5%&0.9%	1.5&-7.3	-0.2&0.6
